Screens as filed in PubChem BioAssay.
Vif A3G = HIV-1 Vif–A3G interaction blockers – biochemical, TR-FRET, GST-Vif 1-94, biotin-A3G peptide, dose response retest, primary screen (AID 1117319). TR-FRET GST-Vif / biotin-A3G peptide binding; higher % means a stronger effect; test concentration not given here; strong numbers were not always called active. inhibition, %, or IC50 in µM where a hit was titrated. hit rate 0.57% among 260,000;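 active = above the screen mean plus three standard deviations and confirmed in dose response; inconclusive = results disagree or hit not tested in dose response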;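 note: Vif residues 1-94 fused to GST binding biotinylated APOBEC3G peptide 110-148; 0% = full assay without inhibitor and 100% = GST in place of GST-Vif; retest series ran down from 100 µM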
Beta cell apopt = blocks beta cell apoptosis. hit rate 0.8% among 300,000. INS-1E cytokine-induced death, ATP luminescence, 48 h; percent of positive-control rescue, neutral wells zero. protection from apoptosis, % (no concentration beside the values);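 active = all replicates at 75% or more, or half of them and the mean; inconclusive = half reach 75% but not the mean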;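 note: 0% = cytokine-treated negative control wells and 100% = positive control rescue; higher means more ATP so stronger rescue from cytokine killing; wells of about 40 µL received 100 nL stock; the first replicate is given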
RanGTP-Imp inh = disruptors of Ran-importin-beta complex formation – biochemical, FRET, CFP-Ran, YFP-importin-beta, homogeneous, primary screen; cell-free CFP-Ran/YFP-importin-beta FRET ratio; inhibition, % (test concentration not listed); hit rate 1.1% among 300,000; AID 2216;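 active = most replicates above 15%; inconclusive = exactly half above 15%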;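 note: 0% = DMSO wells and 100% = Ran loaded with GDP instead of GTP; wells of about 40 µL received 100 nL stock; the first replicate is given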
T cruzi inh = T. cruzi replication inhibition. inhibition, % (no concentration beside the values). T. cruzi beta-gal in NIH3T3, luminescence, 90 h. hit rate 1.4% among 300,000;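 active = mean inhibition across valid replicates above about 55%, limit read from the data; inconclusive = mean below that limit but half or more replicates reach it; inactive = mean below it, under half of replicates reach it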;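 note: signal also drops with host cell toxicity which is not excluded here; 0% = plate median of DMSO wells and 100% = zero luminescence signal; higher percent means less beta-gal luminescence so fewer parasites; stock transfer was 50 nL into about 50 µL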
Bfl-1 A1 inh = inhibitors of the anti-apoptotic protein A1, read as caspase activation; AID 2462; hit rate 0.066% among 330,000; caspase activation, % (concentration not given with the values); MEF A1-2A-BIM cells, Caspase-Glo 3/7 luminescence, 3 h; percent of clofoctol response, vehicle zero;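 active = over half of replicate activation scores above 10%, or exactly half above 10 with the replicate mean above 10; inconclusive = replicate mean below 10 yet half the replicates above 10; inactive = over half of replicates below 10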;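 note: wells of about 30 µL received 50 nL stock; many hits fall short of the cut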
LANA-H2B inh = blocks KSHV LANA binding to histone H2A/H2B | cell-free LANA-H2A/H2B peptide, fluorescence polarization | hit rate 0.6% among 320,000 | AID 2629 | Q9QR71 | inhibition, % (test concentration not listed); in the data active = inhibition mostly above about 10%, no sharp cut-off; inactive = mostly below about 6.7%;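 note: stock transfer was 7.5 nL into about 10 µL; 0% = median of vehicle wells and 100% = median of positive control wells; one replicate is shown; the record names a cut of 25% in any replicate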
MLL AF4-AF9 inh = MLL-AF4/AF9 protein interaction inhibition. hit rate 0.47% among 350,000. P42568. inhibition, % at 10 µM. AlphaScreen, biotin-AF4 peptide binding to FLAG-AF9;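 active = every replicate reaching a set inhibition limit, whatever the replicate mean, cut at about 25% in these data; inconclusive = mean inhibition reaches that limit but some replicates miss it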;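 note: 0% = plate neutral control median and 100% = total signal loss; the record names both 10 and 1 µM as test concentration; the first replicate is given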
Target sequence (P42568 whole entry, looked up): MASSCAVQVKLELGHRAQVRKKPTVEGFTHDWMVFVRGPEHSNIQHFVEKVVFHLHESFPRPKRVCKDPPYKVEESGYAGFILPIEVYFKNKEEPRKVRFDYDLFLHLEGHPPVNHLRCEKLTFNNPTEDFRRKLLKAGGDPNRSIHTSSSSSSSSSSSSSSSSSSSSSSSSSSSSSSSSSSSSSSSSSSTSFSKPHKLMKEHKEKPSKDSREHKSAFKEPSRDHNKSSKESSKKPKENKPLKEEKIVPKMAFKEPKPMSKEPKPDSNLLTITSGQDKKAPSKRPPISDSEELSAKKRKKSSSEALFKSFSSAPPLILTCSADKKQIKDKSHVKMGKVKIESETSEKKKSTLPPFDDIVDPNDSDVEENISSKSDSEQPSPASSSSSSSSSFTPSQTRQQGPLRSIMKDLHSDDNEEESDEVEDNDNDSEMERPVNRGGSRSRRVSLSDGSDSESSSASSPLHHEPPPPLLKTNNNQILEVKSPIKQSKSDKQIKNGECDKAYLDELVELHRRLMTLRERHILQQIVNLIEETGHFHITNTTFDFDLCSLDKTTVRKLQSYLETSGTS
Calb FLC = C. albicans growth modulation with fluconazole | C. albicans CaCi-2 (fluconazole-resistant clinical isolate) + fluconazole, Alamar Blue growth, 48 h | growth inhibition, % (no concentration beside the values) | hit rate 0.57% among 300,000 | AID 1979;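 active = most replicates above 75%; inconclusive = exactly half above 75%; inactive = most below 75%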;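 note: all wells also contain fluconazole at 8 µg/ml as a sub-toxic cotreatment; 0% = median of DMSO wells and 100% = median of geldanamycin control wells; wells of about 8 µL received 7.5 nL stock; the first replicate is given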
* marks the source's active call; other numbers are inactive results.

Results for Cc1cc(NC(=S)N(CCN2CCOCC2)Cc2ccccc2F)ccc1Cl ?
Vif A3G: -2%; Beta cell apopt: -4; RanGTP-Imp inh: -1.5; T cruzi inh: -48; Bfl-1 A1 inh: 0.1; LANA-H2B inh: -5.7; MLL AF4-AF9 inh: -7.7; Calb FLC: -31

What do the screens show for `CC(C)(C)NC(=O)Cn1cnc2cc([N+](=O)[O-])ccc2c1=O`?
Vif A3G: 2%; Beta cell apopt: -4; RanGTP-Imp inh: -1.4; T cruzi inh: 34; Bfl-1 A1 inh: 0.3; LANA-H2B inh: 2.6; MLL AF4-AF9 inh: -2.0; Calb FLC: 28

How did O=c1oc2cccnc2n1CCS(=O)(=O)c1ccc(F)cc1 do in these assays?
Vif A3G: -2%; Beta cell apopt: 3; RanGTP-Imp inh: 3.6; T cruzi inh: -4; Bfl-1 A1 inh: 0.0; LANA-H2B inh: 2.4; MLL AF4-AF9 inh: -1.6; Calb FLC: -3

How did Cc1ccc(S(=O)(=O)N(CC(=O)NCc2cccnc2)C2CCCCC2)cc1 do in these assays?
Vif A3G: -2%; Beta cell apopt: -1; RanGTP-Imp inh: -6.0; T cruzi inh: 2; Bfl-1 A1 inh: -0.1; LANA-H2B inh: -4.6; MLL AF4-AF9 inh: 0.3; Calb FLC: 1

How did CC(=O)c1c(-c2ccccc2)c2ccccc2[nH]c1=O do in these assays?
Vif A3G: -4%; Beta cell apopt: -1; RanGTP-Imp inh: -3.0; T cruzi inh: -1; Bfl-1 A1 inh: 0.6; LANA-H2B inh: 1.1; MLL AF4-AF9 inh: -1.1; Calb FLC: -10

How did CCOC(=O)/C=C/C(=O)N1CCc2ccccc21 do in these assays?
Vif A3G: 3%; RanGTP-Imp inh: 4.0; T cruzi inh: -8; Bfl-1 A1 inh: -2.3; LANA-H2B inh: -4.2; Calb FLC: 5

How did Cc1cccc(CC(=O)N2CCC(N3CCC(C(=O)N4CCOCC4)CC3)CC2)c1 do in these assays?
Beta cell apopt: -13; RanGTP-Imp inh: -0.9; T cruzi inh: 11; Bfl-1 A1 inh: inconclusive; LANA-H2B inh: 3.2; MLL AF4-AF9 inh: -0.6; Calb FLC: -5

Results for Cc1cccc(N(C(=O)Nc2ccc(Cl)cc2)C2=NCC(C)S2)n1 (stereo not given) ?
Vif A3G: -5%; Beta cell apopt: -10; RanGTP-Imp inh: inconclusive; T cruzi inh: -11; Bfl-1 A1 inh: -0.4; LANA-H2B inh: 0.6; MLL AF4-AF9 inh: -2.8; Calb FLC: -67

Results for C[C@@H](NC(=O)[C@@H]1Cc2ccccc2CN1)C(=O)Nc1ccc2c(c1)OCO2 ?
Beta cell apopt: 1; RanGTP-Imp inh: 1.7; T cruzi inh: -4; Bfl-1 A1 inh: 0.7; LANA-H2B inh: 1.2; MLL AF4-AF9 inh: -0.7; Calb FLC: inconclusive

Results for O=C(NCc1ccc[n+](CCCCS(=O)(=O)[O-])c1)c1ccc(OC(F)F)cc1 ?
Vif A3G: 3%; Beta cell apopt: -2; RanGTP-Imp inh: -2.6; T cruzi inh: -13; Bfl-1 A1 inh: 0.7; LANA-H2B inh: -1.4; Calb FLC: -2

What do the screens show for `CCN(CC)S(=O)(=O)c1cc(C)ccc1NC(=S)Nc1cccnc1`?
Vif A3G: 14%; Beta cell apopt: 82*; RanGTP-Imp inh: -3.3; T cruzi inh: 2; Bfl-1 A1 inh: 0.3; LANA-H2B inh: 1.0; MLL AF4-AF9 inh: 1.7; Calb FLC: -25

Results for O=C(NCCCn1ccnc1)C(=O)NC1CCCCC1 ?
Beta cell apopt: -6; Bfl-1 A1 inh: 0.4; LANA-H2B inh: 5.8; MLL AF4-AF9 inh: -0.7; Calb FLC: -14

Results for O=C(NC1CCN(C(=O)Nc2ccccc2)CC1)C1CCCCC1 ?
Vif A3G: 12%; Beta cell apopt: -3; RanGTP-Imp inh: 2.5; T cruzi inh: -11; Bfl-1 A1 inh: 1.0; LANA-H2B inh: -2.0; Calb FLC: -12

What do the screens show for `O=C(Cn1cncn1)c1ccccc1`?
Vif A3G: -5%; Beta cell apopt: -6; RanGTP-Imp inh: 2.7; T cruzi inh: -2; Bfl-1 A1 inh: 0.4; LANA-H2B inh: 4.3; MLL AF4-AF9 inh: 1.5; Calb FLC: 4

How did COc1ccc(N(C)S(=O)(=O)c2ccc3c(c2)NC(=O)CO3)c(OC)c1 do in these assays?
Vif A3G: 7%; RanGTP-Imp inh: 3.7; T cruzi inh: -8; MLL AF4-AF9 inh: 1.8; Calb FLC: 2

How did O=C(N/C(=C\c1ccccc1)C(=O)N1CCOCC1)c1ccccc1Br do in these assays?
Beta cell apopt: -5; RanGTP-Imp inh: 0.0; T cruzi inh: -11; Bfl-1 A1 inh: 0.4; LANA-H2B inh: 2.7; MLL AF4-AF9 inh: 0.4; Calb FLC: -16

What do the screens show for `Cc1ccc(/C=N/NC(=O)c2nnn(-c3nonc3N)c2C(C)C)s1`?
Vif A3G: 12%; Beta cell apopt: -6; RanGTP-Imp inh: -0.3; T cruzi inh: -10; Bfl-1 A1 inh: 0.7; LANA-H2B inh: -13; MLL AF4-AF9 inh: -3.6; Calb FLC: -24

What do the screens show for `CC(C)CCn1nnnc1CN1CCN(C(c2ccccc2)c2ccccc2)CC1`?
Vif A3G: -2%; Beta cell apopt: 7; RanGTP-Imp inh: 0.4; T cruzi inh: 39; Bfl-1 A1 inh: 0.5; LANA-H2B inh: -3.4; MLL AF4-AF9 inh: 0.3; Calb FLC: -8

What do the screens show for `Cc1ccc(C(=O)OCC(=O)NC(=O)c2ccc(C(C)(C)C)cc2)c(O)c1`?
Vif A3G: -6%; Beta cell apopt: -7; T cruzi inh: -10; Bfl-1 A1 inh: 0.1; LANA-H2B inh: 3.8; MLL AF4-AF9 inh: -12; Calb FLC: -12

What do the screens show for `CCOC(=O)Nc1ccc2c(c1)nc(CN1CCCCC1)n2C`?
Vif A3G: -4%; Beta cell apopt: 1; RanGTP-Imp inh: 8.8; T cruzi inh: -2; Bfl-1 A1 inh: 0.1; LANA-H2B inh: 4.3; Calb FLC: 35

How did CC(=O)c1ccccc1Oc1ncnc(N)c1[N+](=O)[O-] do in these assays?
Vif A3G: -9%; Beta cell apopt: -2; RanGTP-Imp inh: -0.1; T cruzi inh: 4; Bfl-1 A1 inh: 0.3; LANA-H2B inh: -3.3; MLL AF4-AF9 inh: 2.6; Calb FLC: 1

Results for CC1CCc2c(nc3ncnn3c2NCCN(C)C)C1 (stereo not given) ?
Vif A3G: 3%; Beta cell apopt: -1; RanGTP-Imp inh: inconclusive; T cruzi inh: 1; Bfl-1 A1 inh: -0.2; LANA-H2B inh: inactive; MLL AF4-AF9 inh: 0.8; Calb FLC: 0

How did O=C(Nc1c(-c2ccccc2)nc2c(Br)cc(Br)cn12)c1ccco1 do in these assays?
Vif A3G: -14%; RanGTP-Imp inh: 5.5; T cruzi inh: 14; Bfl-1 A1 inh: -0.1; LANA-H2B inh: 0.0; Calb FLC: 27

How did O=C1C2C(C(=O)N1Cc1cccnc1)C1C=CC2C12CC2 (stereo not given) do in these assays?
Vif A3G: -5%; RanGTP-Imp inh: -1.5; T cruzi inh: 0; Bfl-1 A1 inh: 1.9; LANA-H2B inh: -3.1; Calb FLC: 0

Results for CCOC(=O)/C=C1\SCC(=O)N1CC(O)CN1C(=O)CS/C1=C\C(=O)OCC ?
Vif A3G: -3%; RanGTP-Imp inh: 3.8; T cruzi inh: 1; Bfl-1 A1 inh: 0.1; LANA-H2B inh: 8.4; Calb FLC: 6

Results for CCOc1ccccc1NC(=O)Nc1ccc(OC)nc1 ?
Vif A3G: -9%; Beta cell apopt: 3; RanGTP-Imp inh: -5.2; T cruzi inh: -3; Bfl-1 A1 inh: inconclusive; LANA-H2B inh: 5.4; MLL AF4-AF9 inh: 1.9; Calb FLC: -4

Results for Cc1oc(-c2ccc(Cl)cc2)nc1CS(=O)CC(=O)NC1CCCC1 (stereo not given) ?
Vif A3G: 5%; Beta cell apopt: -3; RanGTP-Imp inh: -0.7; T cruzi inh: -4; Bfl-1 A1 inh: 0.3; LANA-H2B inh: 2.5; MLL AF4-AF9 inh: -6.4; Calb FLC: -1

How did O=C(NCc1ccc(Cl)cc1)C1CCN(S(=O)(=O)c2cc([N+](=O)[O-])ccc2Cl)CC1 do in these assays?
Beta cell apopt: 3; RanGTP-Imp inh: -4.7; T cruzi inh: 40; Bfl-1 A1 inh: 0.2; LANA-H2B inh: -9.6; MLL AF4-AF9 inh: -1.7; Calb FLC: -13

How did OC1(c2ccccc2)c2ccccc2-c2ncccc21 (stereo not given) do in these assays?
Vif A3G: 30%; Beta cell apopt: -5; RanGTP-Imp inh: 3.1; T cruzi inh: -9; Bfl-1 A1 inh: -0.9; LANA-H2B inh: 4.7; MLL AF4-AF9 inh: -2.8; Calb FLC: 12

What do the screens show for `CCc1ccc(C(=O)OCC(=O)Nc2cccc(S(=O)(=O)NC3=NCCCCC3)c2)cc1`?
Beta cell apopt: -5; RanGTP-Imp inh: -3.6; T cruzi inh: -5; Bfl-1 A1 inh: -0.7; LANA-H2B inh: 2.4; Calb FLC: -6

How did Cc1cccc(NC(=O)CN2C(=O)NC(Cc3ccccc3)C2=O)c1 (stereo not given) do in these assays?
Vif A3G: -1%; Beta cell apopt: -4; RanGTP-Imp inh: -0.4; T cruzi inh: -5; Bfl-1 A1 inh: 0.7; LANA-H2B inh: -6.2; Calb FLC: -3

What do the screens show for `CC(C)CCNC(=O)CN(C(=O)CCC(=O)Nc1nccs1)c1ccc2c(c1)OCCO2`?
Beta cell apopt: 8; RanGTP-Imp inh: 0.9; T cruzi inh: 4; Bfl-1 A1 inh: 1.0; LANA-H2B inh: -0.1; MLL AF4-AF9 inh: 0.9; Calb FLC: -1

How did CCCCn1c(N)c(N(CC(C)C)C(=O)c2ccc(C)c(S(=O)(=O)N3CCCCC3)c2)c(=O)[nH]c1=O do in these assays?
Vif A3G: -3%; Beta cell apopt: -3; RanGTP-Imp inh: -0.3; T cruzi inh: -1; Bfl-1 A1 inh: inconclusive; MLL AF4-AF9 inh: -1.2; Calb FLC: 2

Results for COc1ccc(NC(=O)CN(C)C(=O)CCCc2nc3ccccc3c(=O)[nH]2)cc1 ?
Vif A3G: 5%; Beta cell apopt: -1; RanGTP-Imp inh: -2.0; T cruzi inh: -2; Bfl-1 A1 inh: 0.0; LANA-H2B inh: 4.3; MLL AF4-AF9 inh: 0.3

Two compounds drawn at random from the list so far, as already listed:
How did CCCCn1c(N)c(N(CC(C)C)C(=O)c2ccc(C)c(S(=O)(=O)N3CCCCC3)c2)c(=O)[nH]c1=O do in these assays?
Vif A3G: -3%; Beta cell apopt: -3; RanGTP-Imp inh: -0.3; T cruzi inh: -1; Bfl-1 A1 inh: inconclusive; MLL AF4-AF9 inh: -1.2; Calb FLC: 2

Results for COc1ccc(NC(=O)CN(C)C(=O)CCCc2nc3ccccc3c(=O)[nH]2)cc1 ?
Vif A3G: 5%; Beta cell apopt: -1; RanGTP-Imp inh: -2.0; T cruzi inh: -2; Bfl-1 A1 inh: 0.0; LANA-H2B inh: 4.3; MLL AF4-AF9 inh: 0.3
